Rango release inh: qHTS Assay for Inhibitors of RanGTP induced Rango (Ran-regulated importin-beta cargo) - Importin beta complex dissociation | Snurportin-1 (Homo sapiens) + GTP-binding nuclear protein Ran (Homo sapiens) + Importin … | Biochemical FRET Rango-importin beta, RanGTP-induced dissociation | Potency, µM (top dose mostly 46.1 µM), inactives show top-dose activity change, negative = inhibition | 0.071% of 340,000 active | AID 540253, 2011; active means falling FRET ratio curve, often poorly fitted, with flat reads before Ran was added; inconclusive means other falling curves, or compound fluorescence or quenching; inactive means flat or rising ratio curve;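 note: potency is the fitted concentration of half-maximal effect; % of control where 0% means no effect; nearly all actives have a fitted effect of over 45% in size; -100% = wells without RanGTP and RCC1; the record marks most hits as doubtful in a second field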
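Recombinant Rango FRET biosensor (EYFP–snurportin 1 IBB–cerulean CFP10) at 0.1 uM premixed with 0.25 uM importin beta in PBS, 1 mM DTT, 0.02% Tween-20, 0.1% BSA. Compound added 5 min; RanGTP-RCC1 (0.6 uM Ran, 2 mM GTP, 0.2 uM RCC1) then triggers release, read at 45 min.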
miR-21 FLuc: qHTS Assay for Modulators of miRNAs and/orActivators of miR-21. HeLa miR-21 FLuc reporter, luciferase, 48 h. Potency, µM (series often up to 38.3 µM), inactives show top-dose reporter change, positive = more light. 340,000 tested, under 10 active. AID 2288, 2010; active = well fitted rising curve with a large enough effect; inconclusive = small, poorly fitted or top-dose-only effect; inactive = no such curve, though single readings can be large or run the other way;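 note: % of control where 0% means no effect; miR-21 action dims this reporter so a rising signal means less miR-21 action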
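Luminescence from a firefly luciferase reporter carrying a miR-21 binding site downstream, stably expressed under a CMV promoter in HeLa cells that make miR-21 endogenously, reports miRNA modulation after 48 h compound exposure up to approximately 40uM final.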
Rango-impB inh: qHTS Assay for Inhibitors of Rango (Ran-regulated importin-beta cargo) - Importin beta complex formation; Importin subunit beta-1 (Homo sapiens), Q14974; 0.031% of 340,000 active; Rango CFP/YFP FRET sensor + importin beta, 45 min; Potency, µM (series often up to 92.2 µM), inactives show at the top dose inhibition of complex formation; active = rising FRET ratio curve, often small or poorly fitted; inconclusive = mostly compound fluorescence or quenching in the first reads; inactive = flat curves in all reads;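 note: potency is the fitted concentration of half-maximal effect; 0% = DMSO wells and 100% = buffer wells lacking importin beta; nearly all actives have a fitted effect of over 15% in size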
Target sequence (Q14974 whole entry, looked up): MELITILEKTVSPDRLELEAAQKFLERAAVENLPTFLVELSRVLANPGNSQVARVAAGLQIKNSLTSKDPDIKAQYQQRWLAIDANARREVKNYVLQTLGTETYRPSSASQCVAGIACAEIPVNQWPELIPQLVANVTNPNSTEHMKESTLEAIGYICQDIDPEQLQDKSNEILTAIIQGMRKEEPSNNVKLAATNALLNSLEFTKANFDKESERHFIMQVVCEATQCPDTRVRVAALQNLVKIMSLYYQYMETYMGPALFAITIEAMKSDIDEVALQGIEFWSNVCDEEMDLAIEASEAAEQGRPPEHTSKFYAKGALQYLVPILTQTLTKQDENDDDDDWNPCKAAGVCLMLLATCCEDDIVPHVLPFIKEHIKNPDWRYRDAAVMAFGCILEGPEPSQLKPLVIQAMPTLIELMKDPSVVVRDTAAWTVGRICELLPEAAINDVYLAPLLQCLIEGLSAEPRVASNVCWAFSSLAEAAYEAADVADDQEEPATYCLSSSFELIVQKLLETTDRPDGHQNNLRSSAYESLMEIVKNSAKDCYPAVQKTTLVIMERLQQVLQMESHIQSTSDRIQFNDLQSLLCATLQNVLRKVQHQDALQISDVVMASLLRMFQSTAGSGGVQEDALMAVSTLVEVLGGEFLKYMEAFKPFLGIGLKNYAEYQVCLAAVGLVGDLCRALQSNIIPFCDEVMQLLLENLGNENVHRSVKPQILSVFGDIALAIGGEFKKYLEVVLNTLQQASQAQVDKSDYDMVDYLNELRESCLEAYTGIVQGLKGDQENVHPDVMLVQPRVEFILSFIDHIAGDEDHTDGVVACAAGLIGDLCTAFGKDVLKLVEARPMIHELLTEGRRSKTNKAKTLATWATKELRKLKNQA
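FRET biosensor (snurportin 1 IBB flanked by EYFP and cerulean), 50 nM, with compound 5 min, then 0.125 microM importin beta in PBS, 1 mM DTT, 0.02% Tween-20, 0.1% BSA. CFP/YFP ratio read after 45 min at room temperature; pre-read flags interference.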
GLA inh pH 4.5: qHTS Assay for Inhibitors of Human alpha-Galactosidase at pH 4.5. Alpha-galactosidase A (Homo sapiens), P06280. purified enzyme, 4-MU-alpha-Gal fluorescence, pH 4.5. activity change, negative = inhibition, % at 105 µM. 230,000 tested, under 10 active. AID 1467, 2008; inconclusive = small, poorly fitted or top-dose-only inhibition, or a rising curve; inactive = flat fitted curve, though single readings scatter; no compound was filed as active;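 note: 0% = full activity with enzyme and -100% = basal without enzyme; dose as in the result columns while the protocol names 77 µM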
* hit, by the source's call; & = joins results of further samples; [ ] = remark or other dose.

For Cc1ccc(C)c(-c2cc(C(=O)NCc3cccs3)c3ccccc3n2)c1 the results were Rango release inh 0%, miR-21 FLuc 19%, Rango-impB inh 2.0% and GLA inh pH 4.5 -5.
Screening CN(C)CC(C)(C)CNC(C(=O)Nc1ccc(Cl)cc1C(F)(F)F)c1ccccc1 (centres undefined) returned Rango release inh -4%, miR-21 FLuc -8%, Rango-impB inh inconclusive and GLA inh pH 4.5 -6.
For Cc1ccccc1C(=O)NC(NC(=O)c1ccccc1C)c1cccc([N+](=O)[O-])c1 the results were Rango release inh -5%, miR-21 FLuc 0%, Rango-impB inh 0.1% and GLA inh pH 4.5 3.
`CNc1oc(-c2ccc(Cl)cc2)nc1C#N` gave Rango release inh -6%, miR-21 FLuc -66%, Rango-impB inh 0.3% and GLA inh pH 4.5 4.
`COc1ccc2nc3sc(C(=O)NCc4cccs4)c(N)c3cc2c1` gave miR-21 FLuc -70% and GLA inh pH 4.5 -9.
Screening Cc1ccccc1S(=O)(=O)Cc1ccc(C(=O)NC2CCCCC2C)o1 (centres undefined) returned Rango release inh -21%, miR-21 FLuc 13% and Rango-impB inh -0.4%.
Screening COCCNC(=S)Nc1cccc2cnccc12 returned Rango release inh 12%, miR-21 FLuc 0%, Rango-impB inh 3.3% and GLA inh pH 4.5 -30[21.1 µM].
Cc1ccc(Cn2nc(C)c(NC(=O)c3cc(C)no3)c2C)cc1 was read as Rango release inh -5%, miR-21 FLuc 0%, Rango-impB inh 1.5% and GLA inh pH 4.5 -3.
For Cc1cc(C)c2sc(NNC(=O)c3ccc(S(=O)(=O)N4CCc5ccccc5C4)cc3)nc2c1 the results were Rango release inh -3%, miR-21 FLuc 12%, Rango-impB inh 3.0% and GLA inh pH 4.5 -6.
`C=C(C)CN1C(=O)C(O)(CC(=O)c2ccc3c(c2)OCCO3)c2ccccc21` (centres undefined) gave Rango release inh -16%, miR-21 FLuc -6%, Rango-impB inh -0.6% and GLA inh pH 4.5 6.
CCOc1cccc(C(=O)NNC(=O)C2C3C=CC(C3)C2C(=O)O)c1 (centres undefined) was read as Rango release inh 6%, miR-21 FLuc -21% and Rango-impB inh 0.8%.
Cc1cc(C)cc(N2C(N)=NC(N)=NC2c2cccc(Cl)c2)c1 (centres undefined) was read as Rango release inh -6%, miR-21 FLuc 28% and Rango-impB inh -0.2%.
Screening CC(C)(C)OC(=O)N1CCC(c2c(C(=O)N3CCN(C(=O)c4ccco4)CC3)cnn2-c2cccc(Cl)c2)CC1 returned Rango release inh 8%, miR-21 FLuc 9%&10% and Rango-impB inh -3.8%.
`CCOc1ccccc1-n1ccn(CC(=O)Nc2ccc(Br)cc2F)c(=O)c1=O` gave Rango release inh -3% and Rango-impB inh 5.6%.
Screening CC(=O)c1c(C)[nH]c(C(=O)OCC(=O)c2c(N)n(CC(C)C)c(=O)n(C)c2=O)c1C returned Rango release inh 20% and Rango-impB inh -0.3%.
Screening CCc1noc(C)c1C(=O)N1CCCC(N2CCN(c3ccccc3F)CC2)C1 (centres undefined) returned Rango release inh 0%, miR-21 FLuc 1% and Rango-impB inh 1.3%.
Cc1ccc(S(=O)(=O)O/N=C2\CCCc3ccccc32)cc1 was read as Rango release inh -6%, miR-21 FLuc 0%, Rango-impB inh -1.7% and GLA inh pH 4.5 7.
`CCn1c(SC)nnc1-c1sc2cc(Cl)ccc2c1Cl` gave Rango release inh 13%, miR-21 FLuc -9%, Rango-impB inh 0.7% and GLA inh pH 4.5 7.
`CC(C)CCN(C(=O)c1ccc(Br)cc1)c1c(N)n(Cc2ccccc2)c(=O)[nH]c1=O` gave Rango release inh -3% and Rango-impB inh -1.8%.
COc1cccc(OCC(O)CN2CCN(c3ncccn3)CC2)c1 (centres undefined) was read as Rango release inh -5%, miR-21 FLuc 0%, Rango-impB inh inconclusive and GLA inh pH 4.5 2.
CC1CCCC(C)N1C(=O)Cn1c(=O)sc2ccccc21 (centres undefined) was read as Rango release inh -5%, miR-21 FLuc -7%, Rango-impB inh -2.5% and GLA inh pH 4.5 -3.
COc1cc(C(=O)N(C)Cc2cccc(OC)c2OC)ccc1OCC(=O)Nc1cccc(C(F)(F)F)c1 was read as Rango release inh -3% and Rango-impB inh 3.6%.
Screening C[N+]12CCC(CC1)C(OC(=O)C(O)(c1ccccc1)c1ccccc1)C2 (centres undefined) returned Rango release inh -13%, miR-21 FLuc 3%, Rango-impB inh -6.1% and GLA inh pH 4.5 3.
`NS(=O)(=O)c1ccc(CCNC(=O)CCNS(=O)(=O)c2ccccc2C(F)(F)F)cc1` gave Rango release inh 10% and Rango-impB inh -0.8%.
`O=C(CSc1nc2ccc([N+](=O)[O-])cc2s1)c1ccc2ccccc2c1` gave Rango release inh 6%, miR-21 FLuc -3%, Rango-impB inh 4.5% and GLA inh pH 4.5 -4.
For CC(C)(C)NC(=O)C(c1ccc(-c2ccccc2)cc1)N(C[C@H]1CC[C@@H]([C@@H]2CC[C@H](CO)O2)O1)C(=O)c1ccc2ccccc2c1 (some centres undefined) the results were Rango release inh 1% and Rango-impB inh -1.4%.
`O=C(c1ccccc1)c1cc2ccc(O)cc2oc1=O` gave Rango release inh inconclusive, miR-21 FLuc -27%, Rango-impB inh inconclusive and GLA inh pH 4.5 -12.
For COC(=O)c1cccc(S(=O)(=O)N(Cc2ccco2)Cc2cc3cc(OC)c(OC)cc3[nH]c2=O)c1 the results were Rango release inh -5%, miR-21 FLuc -14%, Rango-impB inh 1.2% and GLA inh pH 4.5 -2.
CCCCC1(C)OC(=O)C(=Cc2c[nH]c3ccccc23)C(=O)O1 (centres undefined) was read as Rango release inh inconclusive, miR-21 FLuc 1%, Rango-impB inh inconclusive and GLA inh pH 4.5 -3.
For CC(=O)Nc1ccc(S(=O)(=O)N(C)CC(=O)OCC(=O)N2CCCCC2)cc1 the results were Rango release inh 6% and Rango-impB inh -1.1%.
`O=C(CSc1nnc(-c2cccnc2)n1Cc1ccccc1)NCc1ccco1` gave Rango release inh -13%, miR-21 FLuc -7%, Rango-impB inh inconclusive and GLA inh pH 4.5 0.
`O=C(N/N=C/c1ccoc1)c1ccccc1` gave Rango release inh inconclusive, miR-21 FLuc -36% and Rango-impB inh -0.3%.
Screening N#Cc1ccc(-c2csc(NNC(=O)c3ccccc3)n2)cc1 returned Rango release inh 7%, miR-21 FLuc 23%, Rango-impB inh -0.8% and GLA inh pH 4.5 -3.
`Cc1ccc(S(=O)(=O)n2ccc3c(OCCOCCNCc4ccc(F)cc4)cccc32)cc1` gave Rango release inh 1%, miR-21 FLuc 27% and Rango-impB inh -0.2%.
Screening O=Cc1ccc2c(c1)CCN2Cc1ccccc1 returned Rango release inh 0%, miR-21 FLuc 13% and Rango-impB inh -2.2%.
Screening CCN1CCN(c2cc(SC(C)C)nc(-c3ccc(OC)cc3)n2)CC1 returned Rango release inh -9%, miR-21 FLuc 1%, Rango-impB inh 5.4% and GLA inh pH 4.5 -1.
Screening O=C(O)CCC(CNS(=O)(=O)c1ccccc1)C(F)(F)F (centres undefined) returned Rango release inh -10%, miR-21 FLuc 3%, Rango-impB inh -0.7% and GLA inh pH 4.5 -3.
CCCCSc1nc(NCc2ccco2)c2c3c(sc2n1)COC(C)(C)C3 was read as Rango release inh -7%, miR-21 FLuc -37%, Rango-impB inh -5.3% and GLA inh pH 4.5 3.
`CC(=O)c1ccc(OCC(O)CN2CCN(CCN3C(=O)c4cccc5cccc(c45)C3=O)CC2)cc1` (centres undefined) gave Rango release inh 1%, miR-21 FLuc inconclusive, Rango-impB inh 0.5% and GLA inh pH 4.5 8.
For O=C(NCCNS(=O)(=O)c1ccccc1Cl)c1cc(OCC(F)(F)F)ccc1OCC(F)(F)F the results were Rango release inh -1%, miR-21 FLuc -1%, Rango-impB inh -2.7% and GLA inh pH 4.5 -4.

Compounds from the list above with a COOH group, in the order listed:
CCOc1cccc(C(=O)NNC(=O)C2C3C=CC(C3)C2C(=O)O)c1 (centres undefined) was read as Rango release inh 6%, miR-21 FLuc -21% and Rango-impB inh 0.8%.
Screening O=C(O)CCC(CNS(=O)(=O)c1ccccc1)C(F)(F)F (centres undefined) returned Rango release inh -10%, miR-21 FLuc 3%, Rango-impB inh -0.7% and GLA inh pH 4.5 -3.

(further entries)
Screening CC1(C)NC(=O)N(CCCCOc2ccc(Cl)cc2)C1=O returned Rango release inh 20%, miR-21 FLuc -10%, Rango-impB inh 0.5% and GLA inh pH 4.5 -2.
For O=C(Nc1ccc(N2CCOCC2)c(S(=O)(=O)Nc2ccccc2Cl)c1)c1ccc(F)cc1 the results were Rango release inh -8% and Rango-impB inh inconclusive.
COc1ccc2nc(NC(=O)CS(=O)(=O)Cc3ccccc3)sc2c1 was read as Rango release inh -12%, miR-21 FLuc -1%, Rango-impB inh 0.1% and GLA inh pH 4.5 10.
`Clc1ccc(C2CSc3c4ncnc-4ncn32)cc1` (centres undefined) gave Rango release inh 6%, miR-21 FLuc -3%, Rango-impB inh -0.4% and GLA inh pH 4.5 4.
For Cc1cccc(-n2ncc3c(N4CCC5(CC4)OCCO5)ncnc32)c1 the results were Rango release inh 6%, miR-21 FLuc -71%, Rango-impB inh 0.2% and GLA inh pH 4.5 -5.
For COC(=O)c1ccc(-c2ccc(C(=O)N3CCCN(C)CC3)cc2)cc1 the results were miR-21 FLuc -23% and GLA inh pH 4.5 -5.
Screening CC(=O)Nc1ccc(SCC(=O)N(C)C2CCS(=O)(=O)C2)cc1 (centres undefined) returned Rango release inh -4%, miR-21 FLuc -6%, Rango-impB inh -1.1% and GLA inh pH 4.5 7.
`NC(=O)CSc1nnc(COc2ccccc2)n1Cc1ccco1` gave Rango release inh -4%, miR-21 FLuc -1%, Rango-impB inh 4.6% and GLA inh pH 4.5 0.
`CSCCC(NC(=O)c1cccc([N+](=O)[O-])c1)C(=O)O` (centres undefined) gave Rango release inh -1%, miR-21 FLuc -6%, Rango-impB inh -3.8% and GLA inh pH 4.5 2.
For CCOCCc1nnc(NC(=O)c2cc(OC)c(OC)c(OC)c2)s1 the results were Rango release inh 21%, miR-21 FLuc 1%, Rango-impB inh -1.8% and GLA inh pH 4.5 -6.
CN(C)C1(CNC(=O)Nc2ccccc2)CCCCC1 was read as Rango release inh -6%, miR-21 FLuc -1% and Rango-impB inh 0.2%.
For CN(CC(=O)OCC(=O)NCc1ccccc1)S(=O)(=O)c1ccc(F)cc1 the results were Rango release inh 25% and Rango-impB inh -1.8%.
Screening O=C(Cn1cccc1C(=O)c1ccccc1)NCc1cccnc1 returned Rango release inh -12%, miR-21 FLuc 3%, Rango-impB inh -1.8% and GLA inh pH 4.5 -1.
For Cc1c(NC(=O)Cc2ccccc2)cccc1C(=O)NN1C(=O)c2ccccc2C1=O the results were Rango release inh 17%, miR-21 FLuc -1%, Rango-impB inh -3.0% and GLA inh pH 4.5 3.
For Cc1cc(NS(=O)(=O)c2ccc(Cl)cc2)nn1CC(=O)NCc1ccco1 the results were Rango release inh -18%, miR-21 FLuc -3%, Rango-impB inh inconclusive and GLA inh pH 4.5 6.
O=C(c1ccc([N+](=O)[O-])cc1)N1CCN(c2ncc(Br)cn2)CC1 was read as Rango release inh -3%, miR-21 FLuc 0% and Rango-impB inh 0.1%.
For COc1cc(C2Nc3cc(Cl)c(S(N)(=O)=O)cc3S(=O)(=O)N2)cc(OC)c1OC (centres undefined) the results were Rango release inh 12%, miR-21 FLuc -1%, Rango-impB inh 4.1% and GLA inh pH 4.5 6.
CN1C2=C(C(=O)CC(C)(C)C2)C(c2cccs2)C2=C1CC(C)(C)CC2=O was read as Rango release inh inconclusive and Rango-impB inh inconclusive.

Screens deposited in PubChem by National Center for Advancing Translational Sciences (NCATS).

A portion of the library, so the mix of outcomes need not match the whole.
